Screening data (PubChem)
miR-21 reporter = qHTS Assay for Modulators of miRNAs and/orActivators of miR-21. HeLa miR-21 FLuc reporter, luciferase, 48 h. Potency, µM (top dose mostly 38.3 µM), without a hit: top-dose reporter change, positive = more light. 340,000 tested, under 10 active. AID 2288, 2010; active = well fitted rising curve with a large enough effect; inconclusive = small, poorly fitted or top-dose-only effect; inactive = no such curve, though single readings can be large or run the other way;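 note: % of control where 0% means no effect; miR-21 action dims this reporter so a rising signal means less miR-21 action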
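HeLa cells stably expressing CMV-driven firefly luciferase with a downstream miR-21 binding sequence, endogenously expressing miR-21, were treated with titrations (up to about 40uM final) for 48 hours at 37 degree Celsius. Luciferase luminescence was read after lysis.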
GLA inh pH 4.5 = qHTS Assay for Inhibitors of Human alpha-Galactosidase at pH 4.5; 230,000 tested, under 10 active; Alpha-galactosidase A (Homo sapiens), P06280; purified enzyme, 4-MU-alpha-Gal fluorescence, pH 4.5; AID 1467, 2008; activity change, negative = inhibition, % at 105 µM; inconclusive = small, poorly fitted or top-dose-only inhibition, or a rising curve; inactive = flat fitted curve, though single readings scatter; no compound was filed as active;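 note: 0% = full activity with enzyme and -100% = basal without enzyme; dose as in the result columns while the protocol names 77 µM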
Rango complex inh = qHTS Assay for Inhibitors of Rango (Ran-regulated importin-beta cargo) - Importin beta complex formation; Importin subunit beta-1 (Homo sapiens), Q14974; Potency, µM (series often up to 92.2 µM), for the others: at the highest dose inhibition of complex formation; Rango CFP/YFP FRET sensor + importin beta, 45 min; AID 540263, 2011; actives 0.031% (n = 340,000); active = rising FRET ratio curve, often small or poorly fitted; inconclusive = mostly compound fluorescence or quenching in the first reads; inactive = flat curves in all reads;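 note: potency is the fitted concentration of half-maximal effect; 0% = DMSO wells and 100% = buffer wells lacking importin beta; nearly all actives have a fitted effect of over 15% in size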
Target sequence (Q14974 whole entry, looked up): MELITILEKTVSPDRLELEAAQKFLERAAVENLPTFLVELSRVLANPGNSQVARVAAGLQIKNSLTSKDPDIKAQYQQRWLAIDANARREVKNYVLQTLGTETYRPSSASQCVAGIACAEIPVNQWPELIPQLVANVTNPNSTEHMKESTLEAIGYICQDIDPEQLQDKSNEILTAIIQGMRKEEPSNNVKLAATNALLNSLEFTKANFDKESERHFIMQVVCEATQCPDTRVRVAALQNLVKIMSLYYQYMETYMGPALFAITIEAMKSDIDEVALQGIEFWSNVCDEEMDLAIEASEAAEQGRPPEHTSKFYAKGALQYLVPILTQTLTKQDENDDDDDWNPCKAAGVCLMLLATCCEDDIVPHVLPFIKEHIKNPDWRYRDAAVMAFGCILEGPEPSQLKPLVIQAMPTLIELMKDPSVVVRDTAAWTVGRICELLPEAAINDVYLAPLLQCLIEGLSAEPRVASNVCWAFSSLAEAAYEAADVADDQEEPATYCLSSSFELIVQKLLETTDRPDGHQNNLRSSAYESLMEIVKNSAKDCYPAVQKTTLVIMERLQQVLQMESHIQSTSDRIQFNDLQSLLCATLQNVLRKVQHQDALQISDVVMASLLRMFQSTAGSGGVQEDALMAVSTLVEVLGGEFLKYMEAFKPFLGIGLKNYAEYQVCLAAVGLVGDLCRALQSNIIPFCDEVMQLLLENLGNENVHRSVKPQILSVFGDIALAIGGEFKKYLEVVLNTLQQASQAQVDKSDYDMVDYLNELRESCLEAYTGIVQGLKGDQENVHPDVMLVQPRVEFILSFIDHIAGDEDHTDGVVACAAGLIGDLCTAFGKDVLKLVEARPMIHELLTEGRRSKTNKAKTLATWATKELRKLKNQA
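FRET biosensor Rango (snurportin 1 IBB between N-terminal EYFP and C-terminal Cerulean), 50 nM in PBS/1 mM DTT/0.02% Tween-20/0.1% BSA, preincubated 5 min RT with compound; 0.125 microM importin beta added, 45 min RT, CFP/YFP FRET ratio read.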
Rango dissoc inh = qHTS Assay for Inhibitors of RanGTP induced Rango (Ran-regulated importin-beta cargo) - Importin beta complex dissociation. Snurportin-1 (Homo sapiens) + GTP-binding nuclear protein Ran (Homo sapiens) + Importin …. actives 0.071% (n = 340,000). Biochemical FRET Rango-importin beta, RanGTP-induced dissociation. Potency, µM (titrated, usually from 46.1 µM), inactives show at the top dose activity change, negative = inhibition; active means falling FRET ratio curve, often poorly fitted, with flat reads before Ran was added; inconclusive means other falling curves, or compound fluorescence or quenching; inactive means flat or rising ratio curve;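 note: potency is the fitted concentration of half-maximal effect; % of control where 0% means no effect; nearly all actives have a fitted effect of over 45% in size; -100% = wells without RanGTP and RCC1; the record marks most hits as doubtful in a second field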
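Compounds preincubate 5 min with complex of recombinant Rango and importin beta in PBS with 1 mM DTT. Ran (0.6 uM) loaded with 2 mM GTP plus 0.2 uM RCC1 starts dissociation; FRET is recorded 45 min later.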
Numbers without * were called inactive; ? = inconclusive; / = no result given; & = joins results of further samples. Only part of the results is shown; rates above refer to the full screens.

SMILES	miR-21 reporter	GLA inh pH 4.5	Rango complex inh	Rango dissoc inh
COc1ccc2c(c1)C=C([C@@H]1C[C@H]3CN(c4ccccc4)C(=O)[C@]34CCCN14)CO2	3%	-7	-2.4%	3%
CC(=O)O[C@H]1CC[C@]2(C)[C@H]3CC=C4[C@@H]5[C@@H](C)[C@H](C)CC[C@]5(C(=O)O)CC[C@@]4(C)[C@]3(C)CC[C@H]2C1(C)C	2%	-14	/	/
O=C(NNC(=O)c1ccc(Cl)nc1)c1ccncc1	/	/	3.1%	13%
COc1ccc(N(CC(=O)NC2CCS(=O)(=O)C2)S(=O)(=O)c2cc(C)ccc2C)cc1 (stereo not drawn)	/	/	-0.5%	-20%
O=C(CCC(=O)NC1CCCCC1)N/N=C/c1ccncc1	2%	4	4.9%	-9%
CCOC(=O)C(CC)Sc1nc2c(c(=O)[nH]c(=O)n2C)n1CCc1ccccc1 (stereo not drawn)	1%	-4	-0.1%	-4%
C=CCNC(=O)/C(C#N)=C/c1cc(Br)ccc1OC	7%	-3	5.7%	-10%
CCN(CC)c1ccc(/C=N/N2CCN(c3ccccc3OC)CC2)cc1	-4%	/	-1.7%	0%
Cc1cc(C)n(-c2nc3ccccc3c(=O)n2OCC#N)n1	-8%	/	-1.6%	-2%
O=C(O)COc1ccc(NC(=O)c2cccs2)cc1	/	/	-1.0%	2%
NC12CC3CC(C1)CC(CC(=O)O)(C3)C2	-1%	-3	1.8%	24%
O=C(CC1Oc2ccccc2NC1=O)NCCCN1CCN(C2CCCCC2)CC1 (stereo not drawn)	/	/	-5.4%	-8%
Cc1ccc(NC(=O)/C(=C\c2ccco2)NC(=O)c2ccco2)cc1	-7%	/	2.9%	4%
COc1ccccc1NC(=O)CCC(=O)N(Cc1ccc(OC)c(OC)c1)c1nccs1	-6%	9	1.6%	0%
COc1cc(C2=NOC(C(=O)NCc3cccnc3)C2)cc(OC)c1OC (stereo not drawn)	14%	/	-0.8%	3%
NC(=O)C1CCN(C(=O)CNC(=O)c2ccc(F)cc2)CC1	/	/	-1.2%	-12%
Cc1cccc(C)c1NC(=O)CSc1ccc([N+](=O)[O-])cn1	7%	-2	2.7%	22%
O=C(CCSc1nnnn1-c1ccccc1)N1CCOCC1	-21%	1	-0.4%	0%
O=[n+]1cc(-c2cc3ccccc3o2)n([O-])c2c1CCCC2	-25%	-5	0.2%	-2%
CCOC(=O)CC(NC(=O)c1ccco1)c1ccccc1Cl (stereo not drawn)	-3%	6	-0.1%	-3%
CCCn1c(SCC(=O)c2ccc3c(c2)OCCO3)nnc1C(C)C	-9%	-2	-1.2%	4%
CN(C(=O)CCc1nc(-c2ccccc2F)no1)c1ccccc1	-35%	7	0.0%	13%
CC(=O)N1CCc2cc(S(=O)(=O)CCC(=O)Nc3cccc(F)c3)ccc21	-3%	-23	-0.6%	0%
COc1cccc(N2C(=O)C3CCCN3C2=S)c1 (stereo not drawn)	0%	/	0.6%	1%
O=C(NNC(=O)c1ccccc1O)c1ccc(-c2ccc([N+](=O)[O-])cc2)o1	/	/	0.1%	10%

Part of the list above with just Rango complex inh and miR-21 reporter.
SMILES,Rango complex inh,miR-21 reporter
O=C(O)COc1ccc(NC(=O)c2cccs2)cc1,-1.0%,/
NC12CC3CC(C1)CC(CC(=O)O)(C3)C2,1.8%,-1%

Other entries.
SMILES	miR-21 reporter	GLA inh pH 4.5	Rango complex inh	Rango dissoc inh
O=S(=O)(c1ccc(Cl)s1)N1CCN(CCc2ccccc2)CC1	-5%	/	-0.7%	-5%
Cc1ccc(C2CC2C(=O)NNC(=S)Nc2ccc(Cl)cc2)cc1 (stereo not drawn)	11%	-18	0.8%	-5%
CC(Nc1nc(-c2ccc(Cl)cc2)cs1)c1nc2cc(Cl)c(N3CCCCC3)cc2n1CCOCCO (stereo not drawn)	/	/	-3.1%	7%
CCCCNC(=S)N1CCC(Cc2ccccc2)CC1	1%	/	-0.8%	-11%
COc1ccccc1C(=O)Nc1ccc(N2CCCCC2)cc1	-22%	3	-0.9%	2%
Fc1ccc2nc(Nc3ccccc3)sc2c1	-46%	?	-0.2%	1%
Cc1ccc(C(=O)NC2=NCCS2)cc1Cl	-53%	/	-0.4%	2%
CN(CC1CCOCC1)C(=O)CC1C(=O)NCCN1Cc1cccc(C(F)(F)F)c1 (stereo not drawn)	0%	/	-2.7%	-13%
COc1cccc(/C=N/NC(=O)C(=O)N/N=C/c2cccc(OC)c2OC)c1OC	-14%	8	1.4%	-3%
CC(NS(=O)(=O)c1ccccc1)C(=O)NCCc1ccccn1 (stereo not drawn)	0%	-2	-0.5%	12%
Cc1cc(/C([O-])=C(/C(=S)Nc2ccc(F)cc2)[n+]2ccccc2)c(C)n1Cc1ccccc1Cl	-8%	-2	-0.1%	-12%
COc1cc(C(=O)NCC2CCCO2)ccc1OCc1ccc(Cl)cc1Cl (stereo not drawn)	/	/	0.6%	-7%
CCC(C)NCCCCOc1ccc(Cl)cc1C (stereo not drawn)	1%	0	1.6%	-1%
CCCN(CC(=O)Nc1cc(Cl)ccc1Cl)C(=O)/C=C/c1cc(OC)ccc1OC	/	/	?	-2%
NC(=S)N/N=C/c1cn(-c2ccccc2)nc1-c1cccnc1	-37%	-2	0.6%	-2%
COc1ccccc1OS(=O)(=O)c1ccc(NC(C)=O)cc1	-1%	/	-2.5%	-5%
O=C(NCc1ccccc1Cl)c1ccc(NC2=NC3CS(=O)(=O)CC3S2)cc1 (stereo not drawn)	-1%	/	1.1%	-3%
Cc1ccc(C(=O)Nc2ccc3ccccc3n2)cc1	-15%	/	0.2%	10%
COc1cc(C=NO)nc(-c2ccccn2)c1	/	/	-4.0%	-12%
CCOC(=O)CSc1nc(-c2ccccc2)nc2c1oc1ccccc12	0%	-3	-0.1%	-10%
COc1cc2c(cc1NC(=O)COc1ccccc1OC)oc1ccccc12	-4%	-9	-1.5%	6%
COc1ccc(C=C2SC(=O)NC2=O)cc1OC	/	/	-0.4%	-16%
O=C(N/N=C/C=C/c1ccccc1)NC1CCCCC1	-20%	-3	-4.4%	52%
COc1ccccc1NC(=O)CCCC(=O)OCC(F)(F)C(F)F	0%	10	1.1%	-6%
CCn1c(SCC(=O)NC2CC2)nnc1-c1cccs1	/	/	-4.5%	15%
SMILES	miR-21 reporter	GLA inh pH 4.5	Rango complex inh	Rango dissoc inh
Cn1c(N)c(C(=O)COC(=O)Cc2ccccc2F)c(=O)n(C)c1=O	/	/	0.0%	0%
CC(CC(=O)O)CC1=NS(=O)(=O)c2ccccc2N1 (stereo not drawn)	-6%	5	1.0%	15%
O=C(ON=C1CCN(S(=O)(=O)c2ccccc2)CC1)c1ccccc1	-1%	-9	5.9%	1%
COc1cccc(OCCNCc2ccccc2)c1	-10%	/	0.7%	1%
COc1ccc(C(=O)NCCc2nnc(SCC(=O)Nc3ccccc3)n2C)cc1	-9%	-4	0.3%	-5%
Cc1nn(Cc2ccc(C(=O)N3CCN(C(=O)c4ccco4)CC3)o2)c(C)c1[N+](=O)[O-]	-1%	/	1.1%	-11%
CC(C)(C)C(=O)Nc1ccc(C(=O)CSc2nnc(C3CC3)n2C2CC2)cc1	/	/	-1.8%	16%
O=C(/C=C/c1ccc(F)cc1)OCC(=O)c1ccc[nH]1	/	/	-0.2%	5%
Cc1cc(C)c(NC(=O)C2CC3CCC2C3)c(C)c1 (stereo not drawn)	-17%	/	0.6%	4%
O=C(NNS(=O)(=O)c1ccccc1)c1ccc([N+](=O)[O-])cc1	2%	/	-2.1%	4%
CCCCn1c(N)c(N(CCOC)C(=O)CSc2nc3ccc(C)cc3[nH]2)c(=O)[nH]c1=O	-1%	-7	0.8%	-11%
CC(=O)Nc1ccc2nc(NC(=O)COc3ccccc3)sc2c1	-12%	4	0.0%	6%
CCCCCCCNC(=O)CC(NS(=O)(=O)c1ccc(NC(C)=O)cc1)C(C)C (stereo not drawn)	-8%	6	-3.8%	0%
C/C(=N\NC(=O)C1CC1(C)c1ccccc1)c1ccco1 (stereo not drawn)	-5%	0	3.9%	-20%
COc1ccc(S(=O)(=O)N2CCCC(C(=O)NCc3ccccn3)C2)cc1Cl (stereo not drawn)	-4%	7	-1.6%	-2%
CCc1cc2cc(OC)ccc2nc1SCC(=O)Nc1cc(OC)c(OC)cc1C(=O)O	0%	0	4.6%	-15%
Cn1c(SCc2ccccc2C#N)nc2ccccc2c1=O	-5%	/	?	-13%
O=C1CCCN2N=C(SCC(=O)N3CCCCC3)SC2=N1	-1%	0	-0.3%	-3%
COc1cc(/C=C2\SC(=S)N(NC(=O)c3ccccc3OC)C2=O)ccc1O	-6%	/	?	?
COc1ccc(CCNC(=O)c2ccc(CS(=O)(=O)Cc3cccc(C)c3)o2)cc1OC	24%&20%	/	0.0%	-3%
CC1CCN(CCC(=O)Nc2nccs2)CC1	-8%	-4	-2.4%	0%
CC1(C)CC2(CCO1)OC(=O)CC2C(=O)Nc1cccc2ccccc12 (stereo not drawn)	4%	5	-0.9%	-8%
O=C(Nc1ccccc1)c1ccc(S(=O)(=O)NCc2cccnc2)cc1	20%	/	0.3%	-1%
CC(C)c1nc2ccc(Br)cn2c1NC1CCCC1	2%	4	-0.4%	1%
C/C=C(/C)C(=O)O[C@@H]1c2c(ccc3ccc(=O)oc23)O[C@@H]1C(C)(C)OC(C)=O	-9%	3	0.1%	-5%
SMILES	miR-21 reporter	GLA inh pH 4.5	Rango complex inh	Rango dissoc inh
Cc1ccc(C)c(OCCCC(=O)Nc2ccccc2C(N)=O)c1	-5%	-2	3.9%	16%
Nc1cc2c(cc1Cl)-c1ccccc1C2=NO	/	/	-1.3%	-3%
CC(C(=O)N1CCCC1)N1CCN(S(=O)(=O)c2ccccc2)CC1 (stereo not drawn)	/	/	-1.3%	-1%
CCCN=C1N(CC)C[C@@H]2[C@@H]3C(=O)N(C)C(=O)[C@@H]3[C@](CC)(C(=O)OC)N12	/	/	2.5%	-22%
CCOC(=O)c1cnc(C(C)(C)C)[nH]c1=O	-1%	2	0.8%	-12%
CC1(C)CC(=O)C=C(N2CCNCC2)C1	-2%	0	3.8%	1%
Cc1csc2ncnc(N3CCN(C(=S)Nc4ccc(C(F)(F)F)cc4)CC3)c12	8%	-7	2.5%	-7%
COc1cc(NC(=S)N2CCCC(C)C2)cc(OC)c1OC (stereo not drawn)	-3%	2	1.3%	-12%
CCN1C(=O)CC(NC2CCN(C(=O)c3ccc(F)cc3)CC2)C1=O (stereo not drawn)	0%	/	-3.5%	-5%
CCNc1cc(Nc2c(C)n(C)n(-c3ccccc3)c2=O)c([N+](=O)[O-])c2nonc12	-5%	-9	-3.5%	0%
CCCCSCCCNC(=O)Nc1cccc(OC)c1	4%	-7	?	-22%
Cc1c(C(N)=O)c(-c2ccccc2)nn1-c1ccccc1	-10%	8	14%	29%
COC(=O)c1ccccc1NC(=O)CSc1nnc(-c2cccc(NC(C)=O)c2)n1C	-1%	2	-1.0%	-1%
CSc1ncccc1C(=O)OCC(=O)Nc1ccc(C)c(S(=O)(=O)N2CCOCC2)c1	/	/	0.2%	-15%
O=C(O)c1ccc2nc(C(F)(F)F)[nH]c2c1	-4%	-1	-0.1%	-6%
C/C=C/c1ccc(OCCn2nnc3ccccc32)c(OC)c1	-20%	/	-3.9%	3%

One compound at a time, as listed above. Order of screens: miR-21 reporter | GLA inh pH 4.5 | Rango complex inh | Rango dissoc inh
`CC(CC(=O)O)CC1=NS(=O)(=O)c2ccccc2N1` (stereo not drawn) across the screens: -6% | 5 | 1.0% | 15%
`CCN1C(=O)CC(NC2CCN(C(=O)c3ccc(F)cc3)CC2)C1=O` (stereo not drawn) across the screens: 0% | / | -3.5% | -5%
`CC(C)c1nc2ccc(Br)cn2c1NC1CCCC1` across the screens: 2% | 4 | -0.4% | 1%
`O=C(NNC(=O)c1ccc(Cl)nc1)c1ccncc1` across the screens: / | / | 3.1% | 13%
